LASV entry inh: inhibitors of Lassa virus binding or cell entry. Lassa virus pseudotype entry inhibition, cell reporter; control for the full effect not named in the record. Potency, µM (top dose mostly 37.9 µM), without a hit: at the highest dose activity change, negative = inhibition, usual class: inhibitors. 1.2% of 300,000 active. AID 540256; active means well fitted inhibition curve with a large enough effect; inconclusive means small, poorly fitted or top-dose-only effect, or effect the other way; inactive means flat fitted curve, though single readings scatter; tested in HEK293 cells; further: on the % scale 0 is the no-effect control and ±100 the full control effect; nearly all actives have a fitted effect of over 50% in size; luciferase read-out
Cruzain noTriton: cruzain (T. cruzi) inhibition without detergent | purified cruzain, Z-FR-AMC fluorescence, no detergent | AID 1476 | P25779 | 2.3% of 200,000 active | Potency, µM, for the others: max response, negative = inhibition, hits mostly inhibitors;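 further: plate controls were enzyme without inhibitor for no effect and buffer without enzyme for full effect; nearly all actives have a fitted effect of over 40% in size; top concentration of the series not given in the record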
Target sequence (P25779 123-467 limits assumed): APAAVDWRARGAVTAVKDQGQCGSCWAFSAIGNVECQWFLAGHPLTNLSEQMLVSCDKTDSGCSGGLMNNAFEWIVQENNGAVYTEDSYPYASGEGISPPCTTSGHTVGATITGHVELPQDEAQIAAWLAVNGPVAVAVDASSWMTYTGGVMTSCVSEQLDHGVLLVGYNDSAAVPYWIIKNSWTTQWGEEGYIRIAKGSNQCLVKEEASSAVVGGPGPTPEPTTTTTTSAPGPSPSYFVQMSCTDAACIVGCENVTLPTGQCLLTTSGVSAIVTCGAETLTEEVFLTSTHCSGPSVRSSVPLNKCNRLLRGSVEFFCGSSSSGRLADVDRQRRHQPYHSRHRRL
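Detergent-free condition (0.00005% Triton X-100) in acetate buffer pH 5.5 with DTT. 1.5 nM enzyme and compound were pre-mixed 15 min, then 2 uM Z-FR-AMC substrate added; reaction progress from fluorescence change between first and third reads (60 s).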
Cruzain inh Det: blocks cruzain activity in presence of Triton detergent | P25779 | purified cruzain, Z-FR-AMC fluorescence, 0.01% Triton | Potency, µM, inactives show max response, negative = inhibition, usual class: inhibitors | 0.43% of 200,000 active;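 further: plate controls were neutral wells for no effect and buffer without enzyme for full effect; nearly all actives have a fitted effect of over 40% in size; top concentration of the series not given in the record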
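Detergent-containing arm of a paired screen for aggregation-based inhibition: 0.01% Triton X-100 present. Cruzain at 1.5 nM cleaved 2 uM Z-FR-AMC at pH 5.5 with 5 mM DTT; AMC fluorescence gain over 60 s measured activity.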
StopGo reporter: FMDV 2A StopGo reporter, luciferase signal; Potency, µM (highest dose often 57.9 µM), for the others: at the top dose signal change, negative = less light; 1.2% of 410,000 active; human cells with a luciferase reporter of 2A StopGo recoding; control for the full effect not named in the record; active = well fitted falling curve with a large enough effect; inconclusive = small, poorly fitted or top-dose-only effect; inactive = no such curve, though single readings can be large or run the other way; tested in HEK293T cells; further: on the % scale 0 is the no-effect control and ±100 the full control effect; nearly all actives have a fitted effect of over 45% in size; luciferase light after 4 h
RE007 growth inh: less growth of the S. pombe RE007 Vpr strain | AID 651644 | S. pombe RE007 Vpr strain, BacTiter-Glo ATP luminescence, 24 h; control for the full effect not named in the record | Potency, µM (doses to about 92.2 µM), without a hit: top-dose activity change, negative = less growth | 0.21% of 360,000 active; active = well fitted falling curve with a large enough effect; inconclusive = small, poorly fitted or top-dose-only effect; inactive = no such curve, though single readings can be large or run the other way;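 further: on the % scale 0 is the no-effect control and ±100 the full control effect; nearly all actives have a fitted effect of over 50% in size; the assay follows cell death caused by Vpr and the record does not say whether a fall means rescue or toxicity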
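Fission yeast strain RE007, carrying one chromosomally integrated HIV-1 vpr copy, was seeded at OD 0.01 in PMG+AL medium with 23 nL pinned compound. After 24 h at 30 °C and 99% humidity, viability was read by BacTiter-Glo luminescence.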
NS1 function inh: influenza NS1 inhibition | S. cerevisiae slowed by influenza A NS1, growth recovery by OD600 | Potency, µM (titrated, usually from 46.1 µM), without a hit: at the top dose activity, positive = more growth | 0.4% of 270,000 active | AID 2326; active means well fitted rising curve with a large enough effect; inconclusive means small, poorly fitted or top-dose-only effect; inactive means no such curve, though single readings can be large or run the other way; further: nearly all actives have a fitted effect of over 50% in size
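Compounds were scored for reversing the slow growth caused by influenza A NS1 in S. cerevisiae, measured by optical density at 600 nm. Assay medium contained 2% galactose at pH 6.0; NS1-free yeast of the same strain were the positive control.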
Marburg entry inh: blocks Marburg virus binding to or entry into cells; Marburg virus pseudotyped entry inhibition, cell reporter; control for the full effect not named in the record; about a third of the inactives were read at about 46 µM; Potency, µM (top dose mostly 37.8 µM), for inactives: at the top dose activity change, negative = inhibition, usual class: inhibitors; 1.8% of 300,000 active; active = well fitted inhibition curve with a large enough effect; inconclusive = small, poorly fitted or top-dose-only effect, or effect the other way; inactive = flat fitted curve, though single readings scatter; tested in HEK293 cells; about a fifth of its hits are not listed in these tables; further: on the % scale 0 is the no-effect control and ±100 the full control effect; luciferase read-out
SARS PLP yeast: inhibitors of SARS-CoV papain-like protease in yeast; S. cerevisiae expressing SARS-CoV PLpro, growth rescue; control for the full effect not named in the record; Potency, µM (doses to about 32.9 µM), without a hit: at the highest dose activity, positive = growth rescue; 0.19% of 330,000 active; active means well fitted rising curve with a large enough effect; inconclusive means small, poorly fitted or top-dose-only effect; inactive means no such curve, though single readings can be large or run the other way; further: 0% is about no effect; nearly all actives have a fitted effect of over 55% in size; growth read by luminescence after 48 h
* = called active by the depositor; ? = inconclusive; . = no result given; & = joins results of further samples; [ ] = dose if it differs, or a comment. Unless noted, the call rests on the fitted dose curve; in most records, active means well fitted curve in the direction sought with a large enough effect; inconclusive means small, poorly fitted or top-dose-only effect, or another doubt; inactive means no such curve, though single readings can be large; an effect the other way counts as inactive or inconclusive. Potency means the concentration at half of the fitted maximal effect.

SMILES | LASV entry inh | Cruzain noTriton | Cruzain inh Det | StopGo reporter | RE007 growth inh | NS1 function inh | Marburg entry inh | SARS PLP yeast
Cc1c(NC(=O)/C(C#N)=C\c2cccs2)c(=O)n(-c2ccccc2)n1C | 3% | -7% | -8.1% | -7% | -3% | -3% | 6% | 2%
O=C1c2ccccc2NC(c2cccc([N+](=O)[O-])c2)N1CCc1ccccc1 (configuration not stated) | ? | . | . | 0% | 2% | 15% | ? | -5%
O=C(COC(=O)C1(c2ccc(Cl)cc2)CCCC1)N1CCc2ccccc21 | 5% | -2% | -5.3% | ? | -13% | -26% | -3% | -29%
Cc1ccc(C(=O)OCC(=O)c2c(N)n(C)c(=O)n(C)c2=O)cc1S(=O)(=O)N1CCCCC1 | -2% | ? | -5.1% | -9% | 1% | 3% | ? | -5%
O=C(CSc1nc(NS(=O)(=O)c2ccccc2)cc(=O)[nH]1)Nc1ccc(F)cc1 | -4% | -12% | -6.3% | 10% | 1% | -19% | 19% | 0%
CN(Cc1nc2ccccc2[nH]1)C(=O)C1CCC(=O)N(C2CCCC2)C1 (configuration not stated) | 22% | . | . | -2% | -12% | 0% | 15% | 5%
CC1CCCN(c2ccc(/C=C(\C#N)c3nn(-c4ccccc4)c(N)c3C#N)cc2[N+](=O)[O-])C1 (configuration not stated) | ? | -29% | -4.3% | -29% | -5% | ? | ? | -1%
O=C(COc1cc2oc(=O)cc(-c3ccccc3)c2cc1Cl)NCc1ccccn1 | -3%[46.1 µM] | . | . | -13% | 7% | 0% | -17%[46.1 µM] | 1%
CC(C)CC1(C)CNC(=O)NC1 | -3% | . | . | 5% | -29% | . | 1% | .
CCCNc1nc(C)cc(-c2cc(C(=O)NC3CCCC3)on2)n1 | . | . | . | -8% | 11% | -5% | . | 1%
CNC(=O)c1cc2c(ccc3ccccc32)oc1=N | . | -8% | 28µM* | . | . | -21% | . | -58%
CCN(CC)c1ccc(/C=N/Nc2cccc(C)c2)c(O)c1 | 0% | ? | -7.2% | 8% | 7% | 9% | -18% | -5%
Cc1ccc(S(=O)(=O)NC2CCCC(C(=O)O)C2)cc1 (configuration not stated) | -14% | 2% | 4.2% | -7% | 0% | -5% | 3%[46.1 µM] | ?
O=C(Cn1cnc2cc([N+](=O)[O-])ccc2c1=O)NCc1ccc(Cl)cc1 | 6% | . | . | -21% | -8% | 5% | -19%[46.1 µM] | 0%
O=C(O)CSc1nnc(NC(=O)CN2CCOCC2)s1 | . | . | . | -19% | -2% | 6% | . | 0%
COc1ccc(-c2noc(CN(C(=O)c3ccoc3C)C(C)C)n2)cc1 | ? | . | . | -6% | 10% | -9% | ? | -12%
Cc1ccccc1-c1nc(CS(=O)(=O)CC(=O)Nc2cc(F)ccc2F)c(C)o1 | . | 20% | -6.0% | -18% | -3% | -14% | . | -19%
Cc1ccc(N(C)S(=O)(=O)c2ccc3[nH]cc(C(=O)O)c(=O)c3c2)cc1C | 23%[46.1 µM] | -12% | 0.4% | -4% | . | . | 5%[46.1 µM] | .
C=CCOc1ccc(CNCc2cccnc2)cc1OCC | 4%[46.1 µM] | . | . | 0% | -13% | 15% | 6%[46.1 µM] | 4%
Cc1c(Cl)cccc1NC(=O)c1cc(C2CC2)on1 | . | -12% | 3.9% | 33% | -10% | -20% | . | -11%
COc1ccc(-c2cc(C(F)(F)F)nc(SCC(=O)N3CCC(C)CC3)n2)cc1 | 8%[46.1 µM] | -6% | -2.2% | -23% | . | . | -16%[46.1 µM] | .
COCCn1c(SCC(=O)NCc2ccco2)nnc1-c1c[nH]c2ccccc12 | . | -7% | 1.9% | 12% | 6% | -1% | . | 6%
COc1ccc2c(c1)nc(SCC(C)O)n2C (configuration not stated) | 3% | -18% | -3.4% | 0% | 6% | -7% | -1% | -2%
Cc1ccc(NCCC(=O)c2cccs2)cc1Cl | 12% | 5% | 0.4% | 18% | -15% | 18% | ? | 0%
COc1ccc(C(=O)Nc2ccc(Cl)c(S(=O)(=O)Nc3ccccc3OC)c2)cc1 | ? | ? | -2.1% | -9% | . | 28% | 2.8µM* | ?
SMILES | LASV entry inh | Cruzain noTriton | Cruzain inh Det | StopGo reporter | RE007 growth inh | NS1 function inh | Marburg entry inh | SARS PLP yeast
Brc1ccc2ncc3ccccc3c2c1 | ? | . | . | -1% | -1% | . | -18% | .
O=C(CNc1ccccc1)N/N=C/c1ccc2c(c1)OCCO2 | -2% | 6% | -5.4% | 64%[activator] | 0% | 3% | 28% | -21%
CC(=O)c1ccc(N2CCN(C(=O)C3CCN(S(=O)(=O)c4c(C)noc4/C=C/c4ccccc4F)CC3)CC2)cc1 | -14%[46.1 µM] | -12% | -3.8% | -19% | . | . | . | .
O/N=C1\CCCc2ccc(Cl)cc21 | -26% | 3% | -4.2% | -1% | -13% | 8% | -16% | -7%
O=C(COC(=O)/C=C/c1ccc2c(c1)OCO2)Nc1ccc(S(=O)(=O)N2CCCC2)cc1 | -29% | 32µM* | -8.9% | -9% | -11% | 6% | -17% | -5%
NC(=O)CSc1nnc2ccc(-c3ccc(Cl)cc3)nn12 | 16%[46.1 µM] | . | . | -12% | -11% | 2% | 12%[46.1 µM] | 0%
COc1ccc2c(C)cc3nnnn3c2c1 | 13% | . | . | 3% | -3% | 2% | 22%[46.1 µM] | -7%
CCOc1ccccc1N1CCN(CC(O)COCc2cccs2)CC1 (configuration not stated) | -18%[46.1 µM] | . | . | -16% | -8% | -12% | ? | -1%
COc1cccc(OC)c1OCCNCC1CSc2ccccc2O1 (configuration not stated) | ? | 4% | -2.6% | -25% | -16% | -5% | 26µM* | .
CCOc1ccccc1NC(=O)C1CCCN(S(=O)(=O)c2ccccc2)C1 (configuration not stated) | . | . | . | ? | 9% | -20% | . | 2%
CCCN(CC(=O)Nc1cccc(S(N)(=O)=O)c1)CC(=O)Nc1ccc(F)c(F)c1F | . | . | . | -20% | -8% | 12% | . | -1%
CN(C)C(CNC(=O)c1coc2ccccc2c1=O)c1ccccc1 (configuration not stated) | ? | . | . | -18% | 2% | 3% | ? | 1%
CCN(CC)S(=O)(=O)c1ccc(/C=C/C(=O)OCC(=O)NC(=O)C2COc3ccccc3O2)cc1 (configuration not stated) | 24% | . | . | 10% | 6% | . | 1% | 5%
CCCCN(CCCC)c1nc(OC)nc(-n2nnc(C(C)=O)c2C)n1 | ? | ? | -4.4% | ? | 9% | -19% | ? | 0%
CC(=O)c1ccc(N=Cc2c(O)n(-c3cc(Cl)ccc3N3CCOCC3)c(=O)c3ccccc23)cc1 | 1% | 6% | -3.1% | -17% | 13% | ? | ? | -1%
Cc1cc([N+](=O)[O-])nn1CC(=O)N(C)C1CCCCC1 | -19% | . | . | -18% | -1% | 2% | 1%[46.1 µM] | 1%
Cc1ccc(-c2nc(Nc3cccc(O)c3)c3ccccc3n2)cc1 | . | . | . | -24% | 23% | -34% | . | -6%
CN(C(=O)CSc1nnc(CN2CCCC2)n1Cc1ccccc1)c1ccccc1 | 12% | . | . | 0% | -1% | . | ? | -3%
O=C(CSc1nnc(-c2ccc(F)cc2)o1)N1CCCC1 | . | . | . | 0% | 7% | 3% | 26%[46.1 µM] | 1%
O=C(COC(=O)COc1ccccc1F)Nc1ccc(Cl)cn1 | -3%[46.1 µM] | . | . | -2% | 6% | -4% | -5%[46.1 µM] | 0%
Cn1c(=O)[nH]c(=O)c2c1nc(CN1CCN(c3ccccc3F)CC1)n2Cc1ccc(F)cc1 | -5%[46.1 µM] | ? | -5.0% | -24% | . | . | -14%[46.1 µM] | .
COc1ccc(C(C)=O)cc1COC(=O)CNC(=O)c1ccc(Cl)cc1 | . | 6% | ? | 10% | -12% | -3% | -2% | -4%
COCCCNc1nc2c(-c3cccc(C)c3)nnn2c2ccccc12 | . | . | . | ? | 1% | 1% | . | 0%
CCOc1ccc(-c2cn3ccccc3n2)cc1[N+](=O)[O-] | ? | -2% | 2.1% | 44%[activator] | ? | -3% | ? | -12%
Cc1ccc(S(=O)(=O)N2CCCCC2)cc1C(=O)N(CCc1ccccc1)Cc1ccccc1 | ? | . | . | 2% | -29% | . | ? | -4%

The final 2 records of the section above are carried over, then new ones follow.
SMILES | LASV entry inh | Cruzain noTriton | Cruzain inh Det | StopGo reporter | RE007 growth inh | NS1 function inh | Marburg entry inh | SARS PLP yeast
CCOc1ccc(-c2cn3ccccc3n2)cc1[N+](=O)[O-] | ? | -2% | 2.1% | 44%[activator] | ? | -3% | ? | -12%
Cc1ccc(S(=O)(=O)N2CCCCC2)cc1C(=O)N(CCc1ccccc1)Cc1ccccc1 | ? | . | . | 2% | -29% | . | ? | -4%
COc1cccc(C2CC(c3ccccc3)Nc3ncnn32)c1 (configuration not stated) | 5% | -6% | 5.1% | ? | 1% | 2% | 6%&6% | 3%
COC(=O)N1CCCc2cc(C)ccc21 | 2%[46.1 µM] | . | . | -7% | 1% | 0% | 6%[46.1 µM] | 0%
Cc1cc(=O)n2nc(N3CCC(C(=O)Nc4cccc(Cl)c4C)CC3)sc2n1 | . | . | . | -10% | 2% | 3% | . | -4%
O=C(CN(C(=O)CNC(=O)c1cccs1)c1ccccc1F)NC1CCCC1 | . | . | . | 19% | 20% | -7% | -1%[46.1 µM] | -2%
COc1ccc(CN2C(=O)CN=C2Nc2cccc(C)c2C)cc1 | -19% | -5% | -1.2% | 3% | 3% | -5% | -3% | -6%
CC(=O)c1ccc(NS(=O)(=O)c2ccc([N+](=O)[O-])cc2)cc1 | 23%[46.1 µM] | . | . | 0% | 12% | . | 0%[46.1 µM] | .
S=c1[nH]c2cnc(Cl)nc2[nH]1 | 8%[46.1 µM] | . | . | 3% | 7% | . | 1%[46.1 µM] | .
CC(C)CNC(=O)C1CCN(Cc2ccc(OCc3ccccc3)cc2)CC1 | 4% | 1% | 1.8% | 13% | 2% | -31% | ? | 2%
Cc1cc(NC(=O)COn2nnc3ccc(S(C)(=O)=O)cc32)ccc1Br | . | . | . | -25% | 2% | -64% | . | -8%
O=[N+]([O-])c1ccc(O)c(Nc2c([N+](=O)[O-])ccc3nonc23)c1 | -10% | . | . | ? | -18% | 2% | 3%[46.1 µM] | -2%
